Compound activity from PubChem BioAssay.
HIV Env fusion: HIV envelope-mediated fusion inhibition. AID 651610. hit rate 1.1% among 360,000. inhibition, % at 12.3 µM. HeLa-JRFL Env/CEM21 cell fusion, luciferase;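 active means mean replicate inhibition score of at least 50 and every replicate individually at or above 50; inconclusive means only one of the two criteria met; inactive means mean below 50 and not all replicates reaching 50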;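 further: 0% = plate neutral controls and 100% = maraviroc near 300 nM; one replicate is shown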
The depositor's hits bear a star; ? = inconclusive; [ ] = another dose, or the depositor's remark. A portion of the library. The share of hits here may be higher or lower than overall.

Start of the data: the first 2 records, to show the layout:
SMILES | HIV Env fusion
C[C@@H]1CCCCO[C@H](CN(C)C(=O)c2ccccc2)[C@@H](C)CN([C@@H](C)CO)C(=O)c2cc(NC(=O)c3ccccc3)ccc2O1 | -38[16.7 µM]
O=C(C[C@@H]1CC[C@@H]2[C@H](COC[C@H](O)CN2C(=O)Nc2ccc(F)cc2)O1)NCCCN1CCOCC1 | 14[16.7 µM]

The whole of this part, previewed entries included:
SMILES | HIV Env fusion
C[C@@H]1CCCCO[C@H](CN(C)C(=O)c2ccccc2)[C@@H](C)CN([C@@H](C)CO)C(=O)c2cc(NC(=O)c3ccccc3)ccc2O1 | -38[16.7 µM]
O=C(C[C@@H]1CC[C@@H]2[C@H](COC[C@H](O)CN2C(=O)Nc2ccc(F)cc2)O1)NCCCN1CCOCC1 | 14[16.7 µM]
C[C@@H]1CCCCO[C@H](CN(C)CC2CC2)[C@H](C)CN([C@@H](C)CO)C(=O)c2cc(NS(=O)(=O)c3ccc(F)cc3)ccc2O1 | -3[16.7 µM]
CO[C@@H]1CN(C)C(=O)c2cc(NC(=O)NC(C)C)ccc2OC[C@@H](C)N(Cc2ccccc2)C[C@H]1C | 7[16.7 µM]
CC=Cc1ccc2n(c1=O)C[C@H]1[C@H](CO)[C@@H](C(=O)N3CCOCC3)N(Cc3ccccc3OC)[C@@H]21 (mixture of isomers) | 19[16.7 µM]
CNC(=O)C[C@@H]1CC[C@@H]2[C@H](COc3ccc(NC(=O)Nc4cccc(F)c4)cc3C(=O)N2C)O1 | -6[16.7 µM]
CO[C@H]1CN(C)C(=O)c2cc(NC(C)=O)ccc2OC[C@@H](C)N(CC2CCCCC2)C[C@H]1C | -10[16.7 µM]
CCC(=O)Nc1ccc2c(c1)C(=O)N(C)C[C@@H](OC)[C@@H](C)CN(Cc1ccncc1)[C@@H](C)CO2 | 18[16.7 µM]
C[C@H]1CN([C@@H](C)CO)C(=O)Cc2cc(NS(=O)(=O)c3cn(C)cn3)ccc2O[C@@H]1CN(C)C(=O)Nc1ccc(C(F)(F)F)cc1 | -8[16.7 µM]
C[C@@H]1CN([C@@H](C)CO)C(=O)c2c(c3ccccc3n2C)-c2ccccc2CO[C@@H]1CN(C)C | 0[16.7 µM]
COc1ccc2c3c(n(C)c2c1)[C@@H](CO)N(C(C)=O)CC31CCN(C(=O)c2ccccc2)CC1 | -16[16.7 µM]
CC(C)COC(=O)N(C)C[C@H]1OCc2ccccc2-c2ccccc2C(=O)N([C@H](C)CO)C[C@H]1C | -1[16.7 µM]
CNC[C@H]1Oc2ccc(NC(=O)CCN3CCOCC3)cc2C(=O)N([C@@H](C)CO)C[C@@H]1C | 14[16.7 µM]
O=C(C[C@H]1CC[C@H]2[C@@H](COC[C@@H](O)CN2C(=O)c2cnccn2)O1)N1CCN(c2ccccc2)CC1 | 8[16.7 µM]
CO[C@H]1CC[C@@H]2CCOc3c(C#N)cccc3C(=O)N(C)C[C@@H](OC)[C@H](C)C(=O)N(C)C[C@H]1O2 | -16[16.7 µM]
O=C(Nc1ccc(C(F)(F)F)cc1)Nc1ccc2c(c1)[C@H]1C[C@H](CC(=O)N3CCc4ccccc4C3)O[C@@H](CO)[C@H]1O2 | 7[16.7 µM]
CC(C)(C)[S@@](=O)N1Cc2cc(C(=O)NCc3ccncc3)nc(-c3cccc(-c4cccc(C#N)c4)c3)c2[C@H]1CCO | 10[16.7 µM]
COc1ccc(CN(C)C[C@@H]2Oc3ccc(NC(=O)c4ccncc4)cc3CC(=O)N([C@H](C)CO)C[C@@H]2C)cc1 | 1[16.7 µM]
O=C(C(=O)N1CCC(CNS(=O)(=O)Cc2ccccc2)CC1)c1cc2ccccc2o1 | -5
C[C@H](CO)N1C[C@H](C)[C@H](CN(C)C(=O)CCC(F)(F)F)OCCCC[C@H](C)Oc2ccc(NS(C)(=O)=O)cc2C1=O | 0[16.7 µM]
CC(=O)Nc1cccc2ccc(O)cc12 | 10
C[C@@H](NC(=O)C[C@@H]1C[C@@H]2c3cc(NC(=O)C4CCOCC4)ccc3O[C@@H]2[C@@H](CO)O1)c1ccccc1 | -14[16.7 µM]
Cc1noc(C)c1S(=O)(=O)Nc1ccc2c(c1)CC(=O)N([C@H](C)CO)C[C@@H](C)[C@H](CN(C)C(=O)Nc1ccccc1)O2 | 6[16.7 µM]
CCCNC(=O)N1C[C@@H](O)COC[C@H]2O[C@@H](CC(=O)N[C@H]3CCN(Cc4ccccc4)C3)CC[C@@H]21 | -5[16.7 µM]
CCCCCCCCN1C(=O)[C@@H](CC(=O)N2CCN(C(=O)OCC)CC2)C[C@@]2(C(=O)OC)C1=C[C@H](C(C)(C)C)O[C@@H]2C | 17

New compounds follow
SMILES | HIV Env fusion
C[C@H]1CN([C@@H](C)CO)C(=O)c2ccccc2-c2ccccc2CO[C@@H]1CN(C)Cc1ccc(F)cc1 | ?
COc1ccc2c3c(n(C)c2c1)[C@@H](CO)N(Cc1ccc(F)cc1)CC31CN(CC2CC2)C1 | 18[16.7 µM]
COc1cc(C(=O)NN=C2c3ccccc3-c3ccccc32)cc(OC)c1OC | -43
CCCC#Cc1ccc2c(c1)O[C@@H](CN(C)Cc1ccccc1)[C@H](C)CN([C@@H](C)CO)S2(=O)=O | 3[16.7 µM]
COc1cccc(-c2cnc3c(c2)C(=O)N([C@@H](C)CO)C[C@@H](C)[C@@H](CN(C)CC2CC2)O3)c1 | -9[16.7 µM]
COCC(=O)Nc1ccc2c(c1)[C@H]1C[C@H](CC(=O)N[C@@H](C)c3ccccc3)O[C@@H](CO)[C@H]1O2 | 11[16.7 µM]
COC(=O)c1ccc2nc(-c3ccc(C)cc3)c(Cc3ccccc3)n2c1 | -11
Cc1noc(C)c1S(=O)(=O)Nc1ccc2c(c1)C(=O)N([C@@H](C)CO)C[C@@H](C)[C@@H](CN(C)S(=O)(=O)c1c(C)noc1C)O2 | 15[16.7 µM]
CO[C@H]1CN(C)C(=O)c2cc(NC(=O)c3ccccc3F)ccc2OC[C@H](C)N(C(C)=O)C[C@@H]1C | 10[16.7 µM]
C[C@H](CO)N1C[C@H](C)[C@H](CN(C)S(=O)(=O)c2ccc(F)cc2)Oc2ncc(-c3ccc(F)cc3)cc2C1=O | 25[16.7 µM]
CC(C)NC(=O)N(C)C[C@H]1OCCCC[C@@H](C)Oc2ccc(NC(=O)CCCN(C)C)cc2C(=O)N([C@@H](C)CO)C[C@H]1C | 7[16.7 µM]
COC(=O)C[C@H]1CC[C@H]2[C@@H](COc3ccc(NC(=O)Nc4cccc(C#N)c4)cc3C(=O)N2C)O1 | 18[16.7 µM]
Cc1noc(C)c1S(=O)(=O)N(C)C[C@H]1Oc2ccc(NS(=O)(=O)c3ccc(F)cc3)cc2CC(=O)N([C@@H](C)CO)C[C@@H]1C | 12[16.7 µM]
CO[C@H]1CN(C)C(=O)c2ccc(NC(=O)C3CC3)cc2OC[C@H](C)N(Cc2cccc(F)c2)C[C@H]1C | 17[16.7 µM]
CCC(=O)Nc1ccc2c(c1)C(=O)N(C)C[C@H](OC)[C@@H](C)CN(CC1CCOCC1)[C@@H](C)CO2 | -4[16.7 µM]
Cc1noc(C)c1NC(=O)N(C)C[C@@H]1OCCCC[C@@H](C)Oc2ccc(N(C)C)cc2C(=O)N([C@H](C)CO)C[C@H]1C | 9[16.7 µM]
Cc1ccc(S(=O)(=O)Nc2ccc3c(c2)CC(=O)N([C@@H](C)CO)C[C@H](C)[C@H](CN(C)Cc2ccc(C(F)(F)F)cc2)O3)cc1 | -17[16.7 µM]
C[C@H](CO)N1C[C@H](C)[C@@H](CN(C)C(=O)Nc2ccc(C(F)(F)F)cc2)Oc2ccc(NS(=O)(=O)c3cn(C)cn3)cc2CC1=O | -13[16.7 µM]
CCC(=O)Nc1ccc2c(c1)OC[C@H](C)N(C(=O)c1ccc(F)cc1)C[C@H](C)[C@H](OC)CN(C)C2=O | -17[16.7 µM]
O=C(CN1CCOCC1)N[C@H]1CC[C@@H](CCNC(=O)C2CCC2)O[C@@H]1CO | 18[16.7 µM]
C[C@@H]1CN([C@H](C)CO)C(=O)c2cc(NS(=O)(=O)c3cn(C)cn3)ccc2O[C@@H](C)CCCCO[C@@H]1CN(C)C | 21[16.7 µM]
NC(=O)[C@@H]1CCCN1C(=O)[C@H]1O[C@@H](n2ccc(N)nc2=O)[C@H](O)[C@@H]1O | -1
C[C@@H]1CCCCO[C@H](CN(C)Cc2ccncc2)[C@@H](C)CN([C@@H](C)CO)C(=O)c2cc(NC(=O)c3ccncc3)ccc2O1 | -24[16.7 µM]
O=C(O)C[C@H]1C[C@H]2c3cc(NC(=O)Nc4ccc(C(F)(F)F)cc4)ccc3O[C@H]2[C@H](CO)O1 | 6[16.7 µM]
CO[C@@H]1CC[C@H]2CCN(C)C(=O)[C@@H](C)CN(C)C(=O)c3cccc(C#N)c3OC[C@H]1O2 | -2[16.7 µM]

Carrying on.
SMILES | HIV Env fusion
C[C@H]1CN(C(=O)OC(C)(C)C)CCN1c1ccc(N2CC[C@@H](O)C2)c(C#N)c1 | -13
COc1cccc(NC(=O)N(C)C[C@@H]2OCc3ccccc3-c3c(n(C)c4ccccc34)C(=O)N([C@@H](C)CO)C[C@H]2C)c1 | 14[16.7 µM]
CO[C@@H]1CN(C)C(=O)c2cc(NC(=O)NC(C)C)ccc2OC[C@H](C)NC[C@@H]1C | 14[16.7 µM]
CCS(=O)(=O)Nc1ccc2c(c1)C(=O)N(C)C[C@@H](OC)[C@@H](C)CN(CC1CCCC1)[C@H](C)CO2 | 11[16.7 µM]
COc1cccc(C(=O)Nc2ccc3c(c2)C(=O)N(C)C[C@H](OC)[C@@H](C)CN[C@H](C)CO3)c1 | 11[16.7 µM]
CN1C(=O)c2cc(NS(=O)(=O)c3cccc(F)c3)ccc2OC[C@H]2O[C@@H](CC(=O)N3CCc4ccccc4C3)CC[C@H]21 | -38[16.7 µM]
CCCN(C)C[C@@H]1OCCCC[C@@H](C)Oc2ccc(NC(=O)NC3CCCCC3)cc2C(=O)N([C@H](C)CO)C[C@@H]1C | 9[16.7 µM]
C[C@H]1CN([C@@H](C)CO)C(=O)CCCn2cc(nn2)CO[C@H]1CN(C)Cc1ccc(-c2ccccc2)cc1 | 7[16.7 µM]
C[C@H]1CN([C@@H](C)CO)C(=O)Cc2cc(NC(=O)Nc3ccc4c(c3)OCO4)ccc2O[C@H]1CN(C)S(=O)(=O)c1ccc(F)cc1 | -11[16.7 µM]
COc1cccc(-c2cccc(-c3nc(C(=O)N(C)C)cc4c3[C@@H](CCO)N([S@](=O)C(C)(C)C)C4)c2)c1 | -4[16.7 µM]
COc1cccc(NC(=O)N(C)C[C@H]2OCc3ccccc3-c3c(n(C)c4ccccc34)C(=O)N([C@H](C)CO)C[C@H]2C)c1 | -62
CN(C)c1ccc2c(c1)[C@@H]1C[C@H](CC(=O)NCC3CC3)O[C@H](CO)[C@@H]1O2 | 1[16.7 µM]
COc1ccc(S(=O)(=O)Nc2ccc3c(c2)[C@@H]2C[C@H](CC(=O)N(C)C)O[C@H](CO)[C@@H]2O3)cc1 | -41[16.7 µM]
COCC(=O)Nc1ccc2c(c1)OC[C@@H](C)N(C(=O)C1CCCC1)C[C@@H](C)[C@@H](OC)CN(C)C2=O | -9[16.7 µM]
COc1ccc(C(=O)Nc2ccc3c(c2)C(=O)N(C)C[C@@H](OC)[C@@H](C)CN(C)[C@@H](C)CO3)cc1 | -2[16.7 µM]
C[C@@H]1CCCCO[C@@H](CN(C)CC2CC2)[C@@H](C)CN([C@H](C)CO)C(=O)c2cc(NS(=O)(=O)c3ccc(F)cc3)ccc2O1 | -3[16.7 µM]
CCCNC(=O)Nc1ccc2c(c1)OC[C@@H](C)N(Cc1cccnc1)C[C@H](C)[C@@H](OC)CN(C)C2=O | 3[16.7 µM]
O=C(C[C@H]1C[C@H]2c3cc(NC(=O)C4CCC4)ccc3O[C@H]2[C@H](CO)O1)NCCc1ccccc1 | 14[16.7 µM]
O=C(C[C@@H]1CC[C@H]2[C@@H](COC[C@H](O)CN2C(=O)c2ccc(F)cc2)O1)Nc1ccc(-c2ccccc2)cc1 | 16[16.7 µM]
O=S(=O)(NCc1ccc(Cl)cc1)c1ccc(Br)cc1C1CC[C@@H](O)C1 (stereo not given in full) | -48
CN1C(=O)c2cc(NS(=O)(=O)c3cccc(F)c3)ccc2OC[C@@H]2O[C@@H](CC(=O)N3CCc4ccccc4C3)CC[C@H]21 | -6[16.7 µM]
C[C@H](CO)N1C[C@H](C)[C@H](CN(C)Cc2ccc3c(c2)OCO3)Oc2c(NC(=O)Nc3cccc4ccccc34)cccc2C1=O | 29[16.7 µM]
O=C(Nc1cccc(Cl)c1)N[C@@H]1CC[C@H](CCn2cc(Cc3ccccc3)nn2)O[C@H]1CO | 10[16.7 µM]
COC(=O)[C@]12C[C@H](CC(=O)N3CCN(C(=O)c4ccco4)CC3)C(=O)N(Cc3ccccc3)C1=C[C@H](C(C)(C)C)O[C@@H]2C | 1
COC(=O)C1=C(C)N(C)C(=NCc2ccc3c(c2)OCO3)NC1c1ccc(C(F)(F)F)cc1 (stereo not given) | 57*
COC(=O)C1=C(C)N(Cc2ccc(C(F)(F)F)cc2)C(=NCc2cccc(C(F)(F)F)c2)NC1c1ccccc1C(F)(F)F (stereo not given) | -14
CCCC(=O)Nc1ccc2c(c1)C(=O)N(C)[C@@H]1CC[C@@H](CC(=O)NCc3cccc(F)c3)O[C@@H]1CO2 | -1[16.7 µM]

A section from further up:
SMILES | HIV Env fusion
O=C(Nc1cccc(Cl)c1)N[C@@H]1CC[C@H](CCn2cc(Cc3ccccc3)nn2)O[C@H]1CO | 10[16.7 µM]
COC(=O)[C@]12C[C@H](CC(=O)N3CCN(C(=O)c4ccco4)CC3)C(=O)N(Cc3ccccc3)C1=C[C@H](C(C)(C)C)O[C@@H]2C | 1
COC(=O)C1=C(C)N(C)C(=NCc2ccc3c(c2)OCO3)NC1c1ccc(C(F)(F)F)cc1 (stereo not given) | 57*
COC(=O)C1=C(C)N(Cc2ccc(C(F)(F)F)cc2)C(=NCc2cccc(C(F)(F)F)c2)NC1c1ccccc1C(F)(F)F (stereo not given) | -14
CCCC(=O)Nc1ccc2c(c1)C(=O)N(C)[C@@H]1CC[C@@H](CC(=O)NCc3cccc(F)c3)O[C@@H]1CO2 | -1[16.7 µM]
